Vif A3G = HIV-1 Vif–A3G interaction blockers – biochemical, TR-FRET, GST-Vif 1-94, biotin-A3G peptide, dose response retest, primary screen (AID 1117319); TR-FRET GST-Vif / biotin-A3G peptide binding; higher % means a stronger effect; test concentration not given here; strong numbers were not always called active; inhibition, %; hits with a dose series show IC50 in µM; hit rate 0.57% among 260,000;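 active = above the screen mean plus three standard deviations and confirmed in dose response; inconclusive = results disagree or hit not tested in dose response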;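 also: Vif residues 1-94 fused to GST binding biotinylated APOBEC3G peptide 110-148; 0% = full assay without inhibitor and 100% = GST in place of GST-Vif; retest series ran down from 100 µM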
Calb FLC = C. albicans growth modulation with fluconazole. C. albicans CaCi-2 (fluconazole-resistant clinical isolate) + fluconazole, Alamar Blue growth, 48 h. growth inhibition, % (concentration not given with the values). hit rate 0.57% among 300,000;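 active = most replicates above 75%; inconclusive = exactly half above 75%; inactive = most below 75%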;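 also: all wells also contain fluconazole at 8 µg/ml as a sub-toxic cotreatment; 0% = median of DMSO wells and 100% = median of geldanamycin control wells; wells of about 8 µL received 7.5 nL stock; the first replicate is given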
AF4-AF9 inh = inhibitors of human MLL-AF4/AF9 interaction; inhibition, % at 10 µM; AlphaScreen, biotin-AF4 peptide binding to FLAG-AF9; P42568; hit rate 0.47% among 350,000;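 active = every replicate reaching a set inhibition limit, whatever the replicate mean, cut at about 25% in these data; inconclusive = mean inhibition reaches that limit but some replicates miss it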;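 also: 0% = plate neutral control median and 100% = total signal loss; the record names both 10 and 1 µM as test concentration; the first replicate is given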
Target sequence (P42568 whole entry, looked up): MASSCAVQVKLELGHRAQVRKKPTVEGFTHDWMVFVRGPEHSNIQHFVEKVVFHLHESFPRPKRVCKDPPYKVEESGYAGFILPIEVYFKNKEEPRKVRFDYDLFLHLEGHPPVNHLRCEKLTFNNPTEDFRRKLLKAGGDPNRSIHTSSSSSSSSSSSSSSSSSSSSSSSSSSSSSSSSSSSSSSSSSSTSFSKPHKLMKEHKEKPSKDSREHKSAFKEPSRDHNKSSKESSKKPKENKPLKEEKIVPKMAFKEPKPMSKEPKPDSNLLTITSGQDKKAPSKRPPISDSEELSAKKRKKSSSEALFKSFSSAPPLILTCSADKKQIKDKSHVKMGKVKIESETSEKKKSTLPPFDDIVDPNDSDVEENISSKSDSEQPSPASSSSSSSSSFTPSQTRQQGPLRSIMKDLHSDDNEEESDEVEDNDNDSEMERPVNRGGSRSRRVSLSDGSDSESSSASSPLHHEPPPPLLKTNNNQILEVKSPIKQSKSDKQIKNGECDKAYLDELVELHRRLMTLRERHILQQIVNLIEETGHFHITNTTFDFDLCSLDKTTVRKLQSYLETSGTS
T cruzi repl = blocks replication of Trypanosoma cruzi. T. cruzi beta-gal in NIH3T3, luminescence, 90 h. inhibition, % (concentration not given with the values). hit rate 1.4% among 300,000. AID 1885;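 active = mean inhibition across valid replicates above about 55%, limit read from the data; inconclusive = mean below that limit but half or more replicates reach it; inactive = mean below it, under half of replicates reach it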;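 also: signal also drops with host cell toxicity which is not excluded here; 0% = plate median of DMSO wells and 100% = zero luminescence signal; higher percent means less beta-gal luminescence so fewer parasites; stock transfer was 50 nL into about 50 µL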
A1 inh = inhibitors of the anti-apoptotic protein A1, read as caspase activation; MEF A1-2A-BIM cells, Caspase-Glo 3/7 luminescence, 3 h; percent of clofoctol response, vehicle zero; caspase activation, % (concentration not given with the values); hit rate 0.066% among 330,000; AID 2462;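 active = over half of replicate activation scores above 10%, or exactly half above 10 with the replicate mean above 10; inconclusive = replicate mean below 10 yet half the replicates above 10; inactive = over half of replicates below 10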;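 also: wells of about 30 µL received 50 nL stock; many hits fall short of the cut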
RanGTP-Impb inh = disruptors of Ran-importin-beta complex formation – biochemical, FRET, CFP-Ran, YFP-importin-beta, homogeneous, primary screen; inhibition, % (no concentration beside the values); hit rate 1.1% among 300,000; cell-free CFP-Ran/YFP-importin-beta FRET ratio;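 active = most replicates above 15%; inconclusive = exactly half above 15%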;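 also: 0% = DMSO wells and 100% = Ran loaded with GDP instead of GTP; wells of about 40 µL received 100 nL stock; the first replicate is given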
Beta apoptosis = blocks beta cell apoptosis; AID 435005; INS-1E cytokine-induced death, ATP luminescence, 48 h; percent of positive-control rescue, neutral wells zero; protection from apoptosis, % (test concentration not listed); hit rate 0.8% among 300,000;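 active = all replicates at 75% or more, or half of them and the mean; inconclusive = half reach 75% but not the mean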;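 also: 0% = cytokine-treated negative control wells and 100% = positive control rescue; higher means more ATP so stronger rescue from cytokine killing; wells of about 40 µL received 100 nL stock; the first replicate is given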
rRNA inh HTS = selective bacterial rRNA inhibition in E. coli; E. coli WT GFP vs humanized-ribosome RFP mutants, fluorescence, 24 h; hits give low values; DMSO median 0, no signal -100; GFP signal change (wild-type ribosome), % (no concentration beside the values); hit rate 1.6% among 350,000;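 active = significant combined selectivity score with lowered wild-type GFP, culture density cut under 30%, mutant RFP and density less affected; inactive = any of these conditions unmet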; also: one replicate is shown; some compounds called inactive have numbers as strong as hits
rRNA inh HTS OD600 = recorded beside rRNA inh HTS, whose call it bears; OD600 change, %; measured here: OD600 growth;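 optical density of the mix in the first replicate; 0 = DMSO median and -100 = no signal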
rRNA inh HTS RFP = further read-out of rRNA inh HTS, marked with its call; RFP signal change, %; measured here: RFP humanized mutant strains;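 first replicate; 0 = DMSO median and -100 = no signal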
An asterisk follows results filed as active; ? = inconclusive; . = no result given; & = joins results of further samples. Some of the compounds tested (hit frequency here may not be typical).

SMILES	Vif A3G	Calb FLC	AF4-AF9 inh	T cruzi repl	A1 inh	RanGTP-Impb inh	Beta apoptosis	rRNA inh HTS	rRNA inh HTS OD600	rRNA inh HTS RFP
Cc1nnc(N2CCCC(C(=O)NCc3ccccc3F)C2)c2nn(-c3ccccc3)c(C)c12 (stereo not given)	-9%	-5	-3.6	11	-2.4	-3.3	2	7	-5	2.5
COc1ccc(CCN=Cc2ccc(O)cc2)cc1OC	.	-11	-3.5	-14	0.1	6.6	-4	-3	1	-2.6
O=C(Cn1nc(C(=O)O)c2ccccc2c1=O)c1c[nH]c2ccccc12	-2%	1	0.9	-5	-0.1	-3.6	-8	-39	-32	-1.5
Cc1ccccc1OCC(=O)NCCN(C)C	17%	6	.	9	-0.3	1.8	-1	.	.	.
O=C1C=C(c2ccc(C(=O)O)cc2)C[C@@H](c2ccc3c(c2)OCO3)C1	.	.	-5.9	.	-0.5	.	-1	-3	-3	5.8
COCc1[nH]nc2c1C1(CCSCC1)C(C#N)=C(N)O2	2%	-8	.	-9	0.2	-0.6	-3	.	.	.
Cc1cccc(-n2ncc3c(NCc4ccc5c(c4)OCO5)ncnc32)c1	8%	-28	.	3	0.5	5.0	-3	.	.	.
Clc1ccc(N2CCN(Cc3ccco3)CC2)cc1	.	-7	6.1	-8	0.1	0.7	0	0	0	1.1
CCN(CC)S(=O)(=O)c1ccc(-c2nnc(SCC(=O)c3ccc(OC)cc3)o2)cc1	-10%&-29%	-17	.	-9	0.1	-3.7	5	.	.	.
Cc1cc(-c2nnc(SCC(=O)Nc3ccc(F)cc3)n2N)n[nH]1	.	-3	0.4	3	0.9	-2.7	0	4	15	0.7
Cc1ccc(CC2CC(=O)N(c3ccncc3)C2=O)cc1 (stereo not given)	16%	3	.	-18	0.6	-1.1	0	.	.	.
CCOCC(=O)Nc1cccc(NC(C)=O)c1	-3%	-5	.	-17	0.3	2.8	-4	.	.	.
COc1ccc(CSC2=NCCN2)cc1Br	.	-2	-7.4	18	1.1	-4.3	-4	10	5	-0.3
Cc1cnc(C(=O)OCC(=O)c2ccc(Br)s2)cn1	-106%	-6	-0.4	-7	?	?	-7	6	12	-0.5
CN1CCN(S(=O)(=O)c2cccc(C(=O)O)c2)CC1	-6%	-1	-15	6	-0.1	2.9	-6	4	6	-0.8
COc1cccc(C2=CC(c3ccc(N(C)C)cc3)n3ncnc3N2)c1 (stereo not given)	8%	11	.	-2	-4.0	-1.9	-2	.	.	.
COc1ccccc1S(=O)(=O)Nc1cccc(-c2nnc3n2CCCCC3)c1	20%	1	.	9	2.2	-0.3	2	.	.	.
Cc1cc(-n2ccc(=O)[nH]c2=O)nc(-c2ccccc2)n1	-6%	-9	.	-5	0.8	-3.7	0	.	.	.
O=C(CN1C(=O)S/C(=C\c2cccc(Cl)c2)C1=O)NCCCn1ccnc1	-5%	-6	-4.7	-3	-0.2	-2.1	1	-8	-2	1.1
CC(C)(C)n1nnnc1C(c1ccccc1)N1CCc2ccccc2C1 (stereo not given)	0%	1	.	22	0.8	-4.2	-4	.	.	.
O=C(CCC(=O)Nc1ccc(F)cc1)N/N=C/c1ccc(F)cc1	2%	7	-2.3	2	2.5	-1.1	4	7	12	1.8
COc1cccc(C(=O)N2CCC(n3nccc3NC(=O)CCOc3ccccc3)CC2)c1	-1%	-8	1.7	4	0.2	-1.2	2	-2	-8	-1.7
COc1ccc(NC(=O)CSc2nncs2)cc1OC	3%	3	.	-9	0.5	-0.3	.	.	.	.
O=C(CC1C=Cc2ccccc2N1C(=O)c1ccccc1)c1ccccc1 (stereo not given)	-11%	.	0.5	14	0.2	-3.5	-5	-28	-43	-17
COc1cccc(/C=C2/CN(C)CC3=C2OC(N)=C(C#N)C3c2cccc(OC)c2)c1 (stereo not given)	31%	-4	.	26	0.1	7.6	.	.	.	.

Further compounds.
SMILES	Vif A3G	Calb FLC	AF4-AF9 inh	T cruzi repl	A1 inh	RanGTP-Impb inh	Beta apoptosis	rRNA inh HTS	rRNA inh HTS OD600	rRNA inh HTS RFP
O=C(CC1C(=O)NCCN1C/C=C/c1ccccc1)NCCc1cnccn1 (stereo not given)	.	14	-1.8	-30	0.4	0.0	0	1	-3	3.0
Cc1ccc(S(=O)(=O)N2CCCC2C(=O)O)cc1 (stereo not given)	-3%	-3	.	-13	-0.8	1.3	-15	7	4	-1.1
O=c1c(-c2ccccc2)coc2c(CN3CCCC3)c(O)ccc12	?	8	.	-8	1.1	3.5	-2	.	.	.
CCOC(=O)c1cnc2ccc(OCC)cc2c1NCc1cccnc1	.	0	-2.3	40	2.2	0.2	3	73	-32	-4.3
Cc1cccc(NC(=O)c2cccc(C(=O)Nc3cccc(C)c3)n2)c1	.	13	-1.6	-2	0.3	2.5	2	16	17	-2.2
CCCOC(=O)c1c(NC(=O)CSc2nc(-c3ccco3)cc(C(F)(F)F)n2)sc(C(=O)OC)c1C	-5%	-1	.	25	0.1	-0.3	6	.	.	.
COc1ccc(-c2cc(=O)c3ccccc3[nH]2)cc1	3%	34	-13	-14	0.7	5.9	6	8	5	-6.8
O=C(Cc1ccc(F)cc1)Nc1ccc(F)c([N+](=O)[O-])c1	3%	-1	.	-6	0.2	5.5	2	.	.	.
O=C(c1ccc2ccccc2n1)N1CCN(Cc2c(F)cccc2Cl)CC1	.	-7	0.6	2	0.0	0.9	6	-6	-9	-1.6
CC(C)(C)NC(=O)Cc1ccc(Cl)c(Cl)c1	1%	-1	-1.3	-11	-0.1	1.2	-6	2	1	-5.7
O=C(N/N=C\c1ccc2c(c1)OCO2)c1ccc(Cn2cc(Br)c([N+](=O)[O-])n2)o1	-5%	2	-4.4	56*	-1.7	3.4	4	9	5	0.7
Cc1cccc(CN2CCC(C(N)=O)CC2)c1	6%	-10	1.1	-3	0.5	0.1	-29	5	3	-0.9
COc1ccc(S(=O)(=O)Nc2cccc3c2O[C@H](CN(C)Cc2ccccc2)[C@@H](C)CN([C@H](C)CO)C3=O)cc1	.	.	-8.2	.	0.0	.	-1	0&4	-3&-9	0.5&2.6
CCN(CC)S(=O)(=O)c1ccc(C(=O)NCc2ccc3c(c2)OCO3)cc1	-5%	-31	0.4	8	0.3	-4.1	-2	-1	3	4.2
CC1CCCCN1CCNC(=O)C1CC(=O)N(c2ccc(F)c(Cl)c2)C1 (stereo not given)	0%	-2	.	19	0.6	1.3	4	.	.	.
CN(C(=O)c1ccc(N2CCCCC2)c([N+](=O)[O-])c1)C1CCS(=O)(=O)C1 (stereo not given)	-9%	.	0.2	.	-1.0	.	-2	-7	-6	-0.8
Cc1ccc(-c2csc(=S)[nH]2)cc1	0%	18	-3.7	3	-0.9	-0.3	-1	-2	-3	2.2
COc1cc2c(cc1NC(=O)CSCC(=O)O)oc1ccccc12	-3%	2	.	4	0.0	-0.9	-8	.	.	.
CCn1c(=O)c([N+](=O)[O-])c(NCCN(C)C)c2ccccc21	.	2	-3.6	7	-0.1	6.2	-8	12	-6	-3.4
N#Cc1ncc(C(F)(F)F)cc1Sc1ccc(N)cc1	-2%	-27	.	9	0.1	-2.1	.	.	.	.
CC1CCCN(CCCNC(=O)C2CC(=O)N(CCc3ccccc3)C2)C1 (stereo not given)	.	2	-0.6	-5	1.7	-1.6	-5	7	16	-1.7
C=CCNC(=O)C(C)Sc1ccc(Cl)cc1 (stereo not given)	0%	-1	.	-13	0.3	2.6	-3	.	.	.
CCn1ccnc1CNC(=O)CC1C(=O)NCCN1CCCc1ccccc1 (stereo not given)	1%	-20	2.0	-15	0.0	1.5	-2	2	13	0.8
CC(=O)Cc1nsc(NC(=O)c2ccc(COc3ccc(C)cc3)o2)n1	4%	-5	.	16	0.7	-3.8	-4	.	.	.
Cc1ccc(CNS(=O)(=O)c2cc(F)ccc2CN2C(=O)c3cccnc3C2=O)o1	.	-1	-1.5	-16	0.0	-2.1	-2	13	-2	-1.2

Further records
SMILES	Vif A3G	Calb FLC	AF4-AF9 inh	T cruzi repl	A1 inh	RanGTP-Impb inh	Beta apoptosis	rRNA inh HTS	rRNA inh HTS OD600	rRNA inh HTS RFP
COc1ccccc1C(C)NCC(=O)Nc1ccccc1C(F)(F)F (stereo not given)	-4%	-5	2.5	0	0.8	?	10	-8	-2	-2.5
O=S(=O)(c1cccc2cccc(Cl)c12)N1CCCC1	14%	2	2.8	0	-0.3	6.6	-9	-22	-18	-0.7
CCCC1=[N+](CC(=O)c2ccc(Br)cc2)CCn2cccc21	14%	7	8.3	13	-0.9	-7.9	2	-6	5	-0.7
CCOc1ccc(OCC)c(NC(=O)CSc2nc3ccccc3c(=O)n2C)c1	-1%	8	.	-10	0.6	0.2	15	.	.	.
COc1ccccc1CN1Cc2cccc3c2[C@@H](CC1=O)[C@H](O)[C@H](O)C3	.	.	2.6	.	-0.1	.	-2	-7	3	-5.6
O=C(CSc1nnc(-c2ccco2)n1CC1CCCO1)c1ccccc1 (stereo not given)	6%	4	.	-4	1.7	-4.7	-7	.	.	.
Cc1cc(C(=O)NC2CCCc3c2cnn3-c2cccc(C)c2C)n(C)n1 (stereo not given)	.	-9	-9.3	-98	-0.2	2.0	112*	-6	1	-2.5
C[C@]12C(=O)N(c3ccc(Br)cc3)C(=O)N1[C@@H]1c3ccccc3OC[C@@H]1[C@H]2c1ccccc1	.	11	-0.4	-1	0.4	2.1	-6	13	5	0.8
O=C1c2ccccc2C(=O)N1c1ccccc1S(=O)C(F)(F)F (stereo not given)	5%	0	.	-9	-1.0	-8.0	-4	.	.	.
Cc1ccccc1CN1CCN(C(=O)c2cccc(F)c2)CC1	0%	-3	.	4	-0.2	-2.3	-9	.	.	.
O=C(Nc1cccnc1)C1(F)C(F)(F)C(F)(F)C(F)(F)C(F)(F)C1(F)F	6%	-17	.	-15	-0.3	1.5	110*	.	.	.
CN(C)C(=O)CSc1nc2ccccc2c(=O)[nH]1	2%	1	.	-5	0.3	2.2	0	.	.	.
CCn1c(C)nc2cc(C(=O)N/N=C/c3cccc(OC)c3O)ccc21	?	108*	-11	-23	-0.1	2.5	.	-21	-31	-3.5
O=C(COC(=O)c1cc(=O)[nH]c2ccccc12)NCc1cccs1	12%	0	2.6	-20	-0.2	2.9	-3	-2	9	-5.5
N#Cc1cn(-c2ccccc2)nc1-c1ccccc1	2%	0	8.0	-6	0.4	-4.4	3	10	1	0.8
Clc1ccc(-c2cc(CN3CCOCC3)no2)cc1	.	-1	0.1	-4	-1.3	0.9	7	-17	-30	-1.3
CCC(C)C(NC(=O)c1ccc(Cl)cc1)C(=O)Nc1cccnc1 (stereo not given)	0%	-4	1.1	-9	0.5	0.4	-3	-6	0	8.6
C=CCNC(=O)CN(c1ccccc1OCC)S(=O)(=O)c1ccc(C)cc1	-1%	-4	.	2	-0.5	-3.9	0	.	.	.
